# P. yoelii liver: Plasmodium liver-stage growth inhibition, dose response, imaging, Malaria Box, P. yoelii, HepG2-A16-CD81EGFP (AID 602156); P. yoelii liver stage in HepG2-A16-CD81EGFP, imaging; first-round cut-off not given here; calls after a first round at 10 µM; hits with a dose series show IC50 in µM; 4.8% of 5,700 active; in the data active means a potency from the dose series;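 further: infected cells exposed to compound for 48 hours before fixation; stained parasite area by imaging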
# Starred values were filed as active, the others as inactive; i = inactive. Only part of the results is shown. The share of hits here may be higher or lower than overall.
SMILES,P. yoelii liver
Oc1ccc(-c2ccc3c(c2)OCO3)cc1CNCC1CC2C=CC1C21CC1 (stereo not drawn),i
NS(=O)(=O)c1ccc(CCNC(=O)C=Cc2ccc3c(c2)OCO3)cc1,i
CCN1C(=Cc2cccc[n+]2C)Sc2ccc(C)cc21,i
COc1cccc(OC)c1C(=O)Oc1cccc2ccc(C)nc12,i
Cc1nc(N2CCCCC2)c2c(C)c(C(=O)N3CCN(c4cccc(Cl)c4)CC3)sc2n1,i
CCN(CC)CCN(C)C1CCc2c(c(C(=O)N3CCCC3)nn2C)C1 (stereo not drawn),i
COc1ccc(/C=C2/SC(=N)N(c3ccccc3OC)C2=O)cc1,i
COC(=O)C1=CN(Cc2ccc(OC)cc2)C=C(C(=O)OC)C1c1cccc([N+](=O)[O-])c1,i
O=C(Cc1ccccc1)NC(c1ccc(Cl)cc1)c1ccc2cccnc2c1O (stereo not drawn),0.19µM*
Cc1sc2nc(C3CC3)n(C3CCN(C(=O)c4ccccn4)CC3)c(=O)c2c1C,i
O=C(O)[C@H]1C[C@@H](CP(=O)(O)O)CCN1,i
COc1ccc(S(=O)(=O)NCCCCNc2ccnc3cc(Cl)ccc23)cc1,i
CCN1C=C/C(=C/c2cccc[n+]2C)c2ccccc21,i
CN1C(=O)N(C)C(NNC(N)=S)C1NNC(N)=S (stereo not drawn),0.015µM*
CN(C)CCCNC(=O)c1ccc(-c2cncc(-c3cccc(O)c3)n2)cc1,i
COc1ccc(C2CC(=O)C3=C(C2)NC(C)=C(C(=O)OC(C)C)C3c2cccc(Cl)c2)cc1OC (stereo not drawn),i
CCC(C)NCC(O)(c1ccc(Cl)cc1)c1ccc(Cl)cc1 (stereo not drawn),i
COc1cc(/C=C2/SC(=Nc3ccccc3)NC2=O)ccc1OCc1ccccc1Cl,i
Cc1ccc(CN2CCC(O)(c3ccc4oc(C(=O)NCCc5cccc(F)c5)cc4c3)CC2)cc1,i
CC(C)CN(C(C(=O)NC(CN1CCCC1)c1ccccc1)c1ccccc1)S(=O)(=O)c1ccccn1 (stereo not drawn),i
CCc1nc2nc(C)cc(Nc3ccc(F)c(Cl)c3)n2n1,i
CC(=O)N1c2ccc(C)cc2C(C)(c2ccccc2)CC1(C)C (stereo not drawn),1.2µM*
CCCCCCN(C(=O)c1cccc(F)c1)C(CC)c1nc2ccccc2c(=O)n1-c1ccccc1OC (stereo not drawn),i
Cc1c(C=O)c2ccccc2n1CC(=O)Nc1cccc(I)c1,i
O=c1c2c(nc3cc(-c4ccc(Br)cc4)[nH]n13)CCCC2,0.5µM*
COC(=O)C1=CN(Cc2ccc(OC)cc2)C=C(C(=O)OC)C1c1cccs1,i
CC1(C)CC(NC(=O)C(=O)NC2CC(C)(C)N(O)C(C)(C)C2)CC(C)(C)N1O,i
CCOc1ccc2nc(C)cc(Nc3ccc(C)c(Cl)c3)c2c1,i
CC(=O)N(C1=C(N(C)C)C(=O)c2ccccc2C1=O)c1ccc(F)cc1,0.057µM*
Cc1ccc(CN=C(N)Nc2nc(C)cc(C)n2)cc1,i
Cc1sc2sc(-c3ccccc3)c(N)[n+]2c1C,i
O=C(O)c1c[nH]c2cc(N3CCCCCC3)c(F)cc2c1=O,i
CN(CCCNc1ccnc2cc(Cl)ccc12)C(=O)c1ccc2c(c1)OCO2,i
O=C(O)/C=C\C(=O)N(C1CCCCC1)C1CCCCC1,i
CC1=CC(=Cc2sc3ccccc3[n+]2C)C=C(C)O1,i
OC(CN1CCN(Cc2ccccc2)CC1)Cn1c2ccc(Cl)cc2c2cc(Cl)ccc21 (stereo not drawn),i
O=[N+]([O-])c1ccc(C=NNc2nc3ccccc3[nH]2)cc1,i
COc1ccc(-c2cnnc(NN=Cc3ccc([N+](=O)[O-])o3)n2)cc1,i
CC(C)(C)CC(C)(C)Nc1c(-c2ccccc2OC(=O)c2ccccc2)nc2ccccn12,i
Brc1ccc(C=NNc2nc3ccccc3[nH]2)cc1,i

# 4 entries out of the list, ordered by SMILES length, low to high:
SMILES,P. yoelii liver
Cc1ccc(CN=C(N)Nc2nc(C)cc(C)n2)cc1,i
CC(=O)N1c2ccc(C)cc2C(C)(c2ccccc2)CC1(C)C (stereo not drawn),1.2µM*
COc1ccc(-c2cnnc(NN=Cc3ccc([N+](=O)[O-])o3)n2)cc1,i
CCCCCCN(C(=O)c1cccc(F)c1)C(CC)c1nc2ccccc2c(=O)n1-c1ccccc1OC (stereo not drawn),i

# (continued)
SMILES,P. yoelii liver
CC(=O)Nc1ccccc1-c1nnn(CC(N)=O)n1,i
COc1ccc(C2C(C(=O)Nc3cccc(C(F)(F)F)c3)c3ccccc3C(=O)N2C2CCCCC2)cc1 (stereo not drawn),i
COC1=CC(=O)c2c(ccc3c(OC)c(O)ccc23)C1=O,i
CC12C(=O)N(c3cccc(C(=O)O)c3)C(=O)C1C1c3ccccc3C2c2ccccc21 (stereo not drawn),i
O=C(NCC1CCCO1)c1cc(S(=O)(=O)N2CCCCC2)c[nH]1 (stereo not drawn),i
O=C(Nc1ccc(CC2=NCCCN2)cc1)c1ccc(C(=O)Nc2ccc(CC3=NCCCN3)cc2)cc1,i
COc1ccc(CNCc2cc3c(-c4ccc(C)cc4)nn(-c4ccccc4)c3[nH]c2=O)cc1,i
O=C(C1CCCCN1)N1CC(c2ccccc2)c2ccccc2C1CN1CCCCC1 (stereo not drawn),i
CN(C)c1nc(Cl)nc(N(C#N)CCOc2ccccc2)n1,i
CC(C)(C)c1cc(CCC(=O)Nc2c3c(nc4ccccc24)N(c2cccc(Cl)c2)CC3)cc(C(C)(C)C)c1O,i
CC[C@H]1CN2CCc3cc(OC)c(OC)cc3[C@@H]2C[C@@H]1C[C@@H]1NCCc2cc(OC)c(OC)cc21,i
Oc1ccc(Br)c(C(Nc2ccccn2)c2ccc3cccnc3c2O)c1 (stereo not drawn),i
O=C(Nc1ccccc1[N+](=O)[O-])C1CC1(c1ccccc1)c1ccccc1 (stereo not drawn),i
CCOC(=O)c1c(CNc2ccncc2)n(C)c2cc(Br)c(O)cc12,i
O=C1C(Nc2ccc(O)cc2)=CC(=NS(=O)(=O)c2cccs2)c2ccccc21,0.086µM*
Cc1ccc2nc(Cl)c3cc(C(=O)NCCN4CCN(C)CC4)sc3c2c1,i
CCCCNC(=O)N1CCN(C(=O)C(Cc2c[nH]c3ccccc23)NC(=O)Nc2cccc(C#N)c2)CC1C (stereo not drawn),i
CCOCCCNc1nc2cc(OC)c(OC)cc2c2nc(-c3ccccc3)nn12,i
COCCNC(=O)C(c1ccc(C)cc1)N(Cc1ccccc1)C(=O)CCC(=O)Nc1nccs1 (stereo not drawn),i
CC(C)(C)c1nn(-c2ccc(Cl)cc2)c2[nH]c(=O)c(CNCc3ccc(Cl)cc3)cc12,i

# Reprinted from the part before: 6 entries; new compounds follow.
SMILES,P. yoelii liver
O=C1C(Nc2ccc(O)cc2)=CC(=NS(=O)(=O)c2cccs2)c2ccccc21,0.086µM*
Cc1ccc2nc(Cl)c3cc(C(=O)NCCN4CCN(C)CC4)sc3c2c1,i
CCCCNC(=O)N1CCN(C(=O)C(Cc2c[nH]c3ccccc23)NC(=O)Nc2cccc(C#N)c2)CC1C (stereo not drawn),i
CCOCCCNc1nc2cc(OC)c(OC)cc2c2nc(-c3ccccc3)nn12,i
COCCNC(=O)C(c1ccc(C)cc1)N(Cc1ccccc1)C(=O)CCC(=O)Nc1nccs1 (stereo not drawn),i
CC(C)(C)c1nn(-c2ccc(Cl)cc2)c2[nH]c(=O)c(CNCc3ccc(Cl)cc3)cc12,i
c1ccc2c(NCCc3c[nH]c4ccccc34)c3ccccc3nc2c1,i
Cc1cc(C=C2SC(=Nc3ccccc3)NC2=O)c(C)n1-c1cccc([N+](=O)[O-])c1,i
CN(C)c1ccc(NC=CC(=O)C(C)(C)C)cc1,i
Cc1ccn2c(NC(C)(C)CC(C)(C)C)c(-c3ccccc3OC(=O)c3ccc(F)cc3)nc2c1,i
CN1CCc2c(sc3nc(SCc4ccccc4)n(-c4ccccc4)c(=O)c23)C1,i
CCOC(=O)CCC(=O)Oc1ccccc1-c1nc2cc(C)ccn2c1NC(C)(C)CC(C)(C)C,i
COc1ccc(-n2nc(C(=O)NCc3ccccc3OC)c3ccccc3c2=O)cc1,i
Cc1ccc(Cn2c(N3CCC(C(=O)NCc4cccs4)CC3)nc3ccccc32)cc1,i
CC[n+]1c(/C=C/c2cc(Br)ccc2OC)ccc2ccccc21,i
OCCNc1nc(Nc2ccccc2)nc2ccccc12,0.048µM*
COc1cccc2c1[C@H](OC)[C@]13O[C@@]1(C2=O)[C@H](O)[C@H](C)[C@@](O)(C(=O)[C@@H]1O[C@H]1C)[C@@H]3O,i
COC(OC)C(C)=NNC(N)=S,0.0049µM*
CCCNc1nc(OC(C(F)(F)F)C(F)(F)F)nc(OC(C(F)(F)F)C(F)(F)F)n1,i
Cc1cccc(OCC(=O)NCCN=C2NS(=O)(=O)c3ccccc32)c1,i
O=C(Nc1ccc(C(c2ccccc2)(c2ccccc2)c2ccc(NC(=O)c3cccc([N+](=O)[O-])c3)cc2)cc1)c1cccc([N+](=O)[O-])c1,i
CCOc1ccc(-n2nc(C(=O)NCCCN(C)Cc3ccccc3)c3ccccc3c2=O)cc1,i
Cc1cc(=O)n(-c2nc(-c3ccccc3O)nc3ccccc23)[nH]1,i
COc1ccc(/C=C/c2nc(=O)c3ccccc3o2)cc1,i
COc1ccc(C(=O)N2C(C(=O)Nc3ccc(C)cc3)CSC2c2ccc(C(C)(C)C)cc2)cc1 (stereo not drawn),i
COc1cc2c(c(OC)c1CN1CCN(c3ccccc3)CC1)C(=O)c1ccccc1C2=O,i
CCOC(=O)C1=C(C(=O)OCC)SC(=C2C(=S)C(C)(C)N(C(=O)c3cccc(F)c3)c3cc(C)ccc32)S1,i
CC(=O)Nc1ccc(NC2=C(N3CCCCC3)C(=O)c3ccccc3C2=O)cc1,i
COCCN(CC(=O)Nc1cc(C(C)(C)C)nn1-c1ccc(C)cc1)C(=O)COCc1ccccc1,i
CN(C)CCNc1c2c(nc3ccccc13)CCC2,i
CCOC(=O)c1c(CNCCN(CC)CC)n(C)c2cc(Br)c(O)cc12,i
c1ccc(COCC[N+]2(Cc3ccccc3)CCCCC2)cc1,i
CCN(CC)S(=O)(=O)c1ccc(C(=O)NCc2nnc(SCC(=O)N3CCc4ccccc43)n2-c2ccccc2OC)cc1,i
Clc1cccc(C(Nc2cccnc2)(c2ccccc2)c2ccccc2)c1,i
Cc1ccc(C(=O)NCCNC(=O)CN2CCOCC2)cc1,i
COc1ccc(OC)c(-c2ccc(O)c(CNCCc3ccc(F)cc3)c2)c1,i
COc1cc(-c2cc(C(F)(F)F)n3ncc(C(=O)Nc4cc(C)ccc4O)c3n2)cc(OC)c1OC,i
CCOC(=O)c1c(NC(=O)CSc2nnc(CNC(=O)c3cccs3)n2-c2cccc(Cl)c2)sc2c1CCCC2,i
CC(C)c1ccc(/C=C/C(=O)NCc2ccco2)cc1,i
CCOc1ccc(C2N(C)c3ccccc3N2C)cc1,i
C=CCC(=O)NC1CCN(CC(O)CN(Cc2ccccc2)S(=O)(=O)c2ccccc2)C1 (stereo not drawn),i
CN1CCN=C1c1ccc(NC(=O)c2ccc(C(=O)Nc3ccc(C4=NCCN4C)cc3)c([N+](=O)[O-])c2)cc1,i
COc1ccc(CNCCN2CCN(c3ccccc3)C[C@@H]2Cc2ccc(O)cc2)cc1,i
CC(=NNC(=O)C(=Cc1ccc([N+](=O)[O-])cc1)NC(=O)c1ccccc1)c1ccccn1,i
O=C(c1ccncc1)N1CCN(Cc2ccc3c(c2)OCO3)CC1,i
Cc1ccn2c(NC(C)(C)CC(C)(C)C)c(-c3ccccc3OC(=O)c3cccc(Cl)c3)nc2c1,i
NC(=S)NN=Cc1cc([N+](=O)[O-])ccc1O,i
O=C(Nc1ccc([N+](=O)[O-])cc1Cl)c1cc(Br)ccc1O,i
CCCCOc1ccc(C(=O)N(C)CCCNc2ccnc3cc(Cl)ccc23)cc1,i
CN(C)c1ccc(C=Cc2nc(=O)c3ccccc3o2)cc1,i
OC(CN1CCN(CC(O)Cn2c3ccccc3c3cc(Br)ccc32)CC1)Cn1c2ccccc2c2ccccc21 (stereo not drawn),i
O=C1CN(C(=O)CCC2CCCC2)C(c2ccc(F)cc2)c2cc(Cl)ccc2N1 (stereo not drawn),i
COC(=O)C(C)NC(=O)c1ccc(F)cc1 (stereo not drawn),i
COc1ccc2nc(N=C(N)N)nc(C)c2c1,i
CCn1c(/C=C/C=C2\N(C)c3ccccc3C2(C)C)[n+](Cc2ccccc2)c2ccccc21,0.0068µM*
CCN1/C(=C/c2ccc3cc(OC)ccc3[n+]2CC)Sc2ccc(NC(C)=O)cc21,i
CC(=O)C1C(=O)c2c(cccc2[N+](=O)[O-])C1=Nc1ccccc1C (stereo not drawn),i
COc1cccc2c1OCC(C(=O)Nc1ccc(C)cc1)=C2,i
CCCCC(CC)C(=O)N1CCN(C(C)c2nc3ccc(Cl)cc3c(=O)n2C)CC1 (stereo not drawn),i
Cc1ccc(N2C(=O)CC(NCCCN3CCOCC3)C2=O)cc1 (stereo not drawn),i
CCOc1ccccc1CN1CCCC(C(=O)N2CCCCCC2)C1 (stereo not drawn),i
Cc1c(Cl)cccc1NC(=S)N(CCCN(C)c1ccccc1)Cc1cccn1Cc1ccc(Cl)cc1,i
Oc1ccc(-c2ccc(F)cc2)cc1CNCCCn1ccnc1,i
Clc1ccc(CNCCCn2ccnc2)cc1Cl,i
CSc1oc(C(C)(C)C)nc1[P+](c1ccccc1)(c1ccccc1)c1ccccc1,i
Oc1ccc(Br)cc1C=NNc1nc2ccccc2[nH]1,i
# (cont.)
SMILES,P. yoelii liver
CCC1(C)CC(CCNCc2ccccc2O)(c2ccc(OC)cc2)CCO1 (stereo not drawn),i
CCc1ccc(C(Nc2cc(C)ccn2)c2ccc3cccnc3c2O)cc1 (stereo not drawn),i
CN1CCC(CCNCc2ccc(OCC(O)CN(C)Cc3ccccc3)cc2)CC1 (stereo not drawn),i
Cc1ccc(N2C(=O)c3sc4nnc(C)c(=O)n4c3C2=O)cc1,i

# Of the compounds above, three have a furan ring, fused or not:
SMILES,P. yoelii liver
Cc1ccc(CN2CCC(O)(c3ccc4oc(C(=O)NCCc5cccc(F)c5)cc4c3)CC2)cc1,i
COc1ccc(-c2cnnc(NN=Cc3ccc([N+](=O)[O-])o3)n2)cc1,i
CC(C)c1ccc(/C=C/C(=O)NCc2ccco2)cc1,i

# Screening data: PubChem, GNF / Scripps  Winzeler lab
